# Six1-Eya2 blk = blocks human Six1 binding to Eya2 | Q15475+O00167 | AlphaScreen GST-Six1/His-Eya2 binding, biochemical; stronger effect = lower value; control for the full effect not named in the record | activity change, % (concentration not given with the values) | 360,000 tested, 0.56% active; in the data active = activity change below about -65%; inconclusive = about -30% to -65%; inactive = above about -30%; note: % is set by controls: 0 for no effect and ±100 for the full control effect
# Target sequence (O00167 whole entry, looked up): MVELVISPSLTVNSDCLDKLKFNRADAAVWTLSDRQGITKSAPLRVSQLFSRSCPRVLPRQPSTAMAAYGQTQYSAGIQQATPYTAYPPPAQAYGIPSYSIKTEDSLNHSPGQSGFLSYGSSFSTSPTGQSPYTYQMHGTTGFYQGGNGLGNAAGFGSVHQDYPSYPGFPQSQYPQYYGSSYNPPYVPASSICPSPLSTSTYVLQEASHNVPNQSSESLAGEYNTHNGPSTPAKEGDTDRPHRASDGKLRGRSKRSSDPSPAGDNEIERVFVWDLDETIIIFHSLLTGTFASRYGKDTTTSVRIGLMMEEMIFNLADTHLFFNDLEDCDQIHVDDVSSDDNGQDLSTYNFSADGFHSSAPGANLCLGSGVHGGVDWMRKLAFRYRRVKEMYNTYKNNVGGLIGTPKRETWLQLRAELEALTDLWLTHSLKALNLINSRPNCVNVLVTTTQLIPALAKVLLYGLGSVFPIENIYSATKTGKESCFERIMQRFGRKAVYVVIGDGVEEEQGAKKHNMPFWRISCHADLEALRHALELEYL
# Target sequence (Q15475 whole entry, looked up): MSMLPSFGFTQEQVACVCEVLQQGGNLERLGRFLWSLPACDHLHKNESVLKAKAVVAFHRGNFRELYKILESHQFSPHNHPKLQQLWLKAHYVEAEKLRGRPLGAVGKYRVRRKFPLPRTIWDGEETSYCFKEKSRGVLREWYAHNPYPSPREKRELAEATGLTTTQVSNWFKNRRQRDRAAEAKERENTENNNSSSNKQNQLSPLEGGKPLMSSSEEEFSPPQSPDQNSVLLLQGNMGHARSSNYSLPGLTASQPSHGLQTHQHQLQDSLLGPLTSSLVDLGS
#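 Homogeneous AlphaScreen proximity assay pairing GST-Six1 with His-tagged Eya2 (added as 5X mix: 250 nM and 500 nM) in 50 mM Tris pH 8.0, 300 mM NaCl, 1 mM TCEP. Glutathione donor and nickel acceptor beads; 1 h, 37 °C, dark.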
# TRPV1 potentiator = potentiators of human vanilloid receptor 1 (TRPV1); Q8NER1; TRPV1-expressing cells, Fluo-8 calcium influx, capsaicin EC20 potentiation; host cell line not named in the record; control for the full effect not named in the record; potentiation, % at 8.33 µM; 320,000 tested, 0.02% active; AID 540277; active means potentiation above 80%; inconclusive means 30% to 80%; inactive means below 30%; note: 0% is about no effect
#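 Cells expressing TRPV1 were dye-loaded with Fluo-8 and read kinetically: 10 s baseline, 3 min after compound (agonist portion), then 2 min after EC20 capsaicin (allosteric enhancer portion). Calcium-bound dye fluorescence at 480/520 nm.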
# Sfp inh = blocks B. subtilis Sfp PPTase activity. Q9F4F7. AID 1490. 310,000 tested, 3.5% active. Biochemical Sfp PPTase activity, qHTS. Potency, µM, without a hit: max response, negative = inhibition, usual class: inhibitors; active = well fitted inhibition curve with a large enough effect; inconclusive = small, poorly fitted or top-dose-only effect, or another doubt; inactive = no such curve, though single readings can be large or run the other way;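 note: the enzyme is Sfp with the accession as filed and its product quenches rhodamine fluorescence; potency is the fitted concentration of half-maximal effect; 0% = enzyme reaction without inhibitor and -100% = no enzyme wells; top concentration of the series not given in the record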
#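 Fluorescence-quenching assay with 15 nM Sfp, 5 uM rhodamine-CoA and 12.5 uM BHQ-2-labelled ybbR peptide in pH 7.6 Hepes/MgCl2 buffer. Enzyme was pre-incubated with compound for 15 min at room temperature. Rate was taken from the 30-min fluorescence change (525/598 nm).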
# D2 potentiator = human D2 receptor positive allosteric modulation; AID 624464; 360,000 tested, 0.23% active; DiscoveRx D2 beta-arrestin cells, luminescence, 90 min; 100% = 57 uM dopamine signal; P14416; potentiation, % (concentration not given with the values); active = potentiation of 50% or more; inconclusive = 30% to 50%; inactive = 30% or less;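 note: compound concentration not given in the record; tested on top of an EC20 dose of dopamine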
#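 PathHunter beta-arrestin assay in DiscoveRx D2 cells. Compounds were added with an EC20 of dopamine (50 nM final) for 90 min at 37 deg C. Luminescence was read 1 h after detection reagent, with 57 uM dopamine as the EC100 control.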
# PINK1 expr mod = changes PINK1 expression | 410,000 tested, 0.2% active | AID 624263 | Potency, µM (highest dose often 76.6 µM), for inactives: at the top dose activation (PINK1 increase), actives largely listed as activators | PINK1 immunofluorescence, high-content cytometry, 24 h; active = well fitted activation curve with a large enough effect; inconclusive = small, poorly fitted or top-dose-only effect; inactive = flat fitted curve, though single readings scatter; cell line not stated here;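 note: potency is the fitted concentration of half-maximal effect; % of control where 0% means no effect; nearly all actives have a fitted effect of over 65% in size; a mitochondrial uncoupler was the plate control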
#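 Compound titrations (5 concentrations, 24 h) on a stable cell line; DMSO and CCCP controls. Endpoint: fixed-cell PINK1 immunofluorescence with mitochondrial, cell and nuclear markers, scanned by microplate cytometer.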
# D2 agonist = human D2 receptor agonism in beta-arrestin assay; P14416; DiscoveRx PathHunter D2 beta-arrestin, luminescence, 90 min; 100% = 57 uM dopamine signal; activation, % (test concentration not listed); 360,000 tested, 0.084% active; AID 624465; in the data active = activation above about 40%; inconclusive = about 15% to 40%; inactive = below about 15%; note: compound concentration not given in the record; the text of the record calls up to 30% inactive
#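 DiscoveRx PathHunter D2 beta-arrestin cells (2,100/well) attached overnight, then compound-stimulated 90 min at 37 C in HBSS/10 mM HEPES/0.1% Tween-20 buffer; beta-galactosidase complementation read by luminescence after 1 h at ambient temperature. Dopamine 57 uM final (EC100) as control.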
# CtBP-E1A blk = CtBP/E1A binding inhibition; AlphaScreen GST-E1A/His-CtBP binding, 1536-well; stronger effect = lower value; control for the full effect not named in the record; activity change, % (no concentration beside the values); 340,000 tested, 0.49% active; in the data active means activity change below about -65%; inconclusive means about -30% to -65%; inactive means above about -30%; note: % is set by controls: 0 for no effect and ±100 for the full control effect; compound concentration not given in the record
#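 Homogeneous bead-based format: GST-tagged E1A captured on glutathione donor beads, His-tagged CtBP on nickel acceptor beads; compounds precede bead addition by 2 h at 37 °C.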
# * = called active by the depositor; ? = inconclusive; . = no result given; & = joins results of further samples; [ ] = dose if it differs, or a comment.
canonical_smiles	Six1-Eya2 blk	TRPV1 potentiator	Sfp inh	D2 potentiator	PINK1 expr mod	D2 agonist	CtBP-E1A blk
CCOc1ccc(OCCC(=O)OC(C)C(=O)Nc2ccc(C(C)=O)cc2)cc1 (stereo not given)	-2	-4	13%	-15	0.7%	-2.0	6
CC(=O)Nc1ccc(S(=O)(=O)NC(C)c2nc(-c3ccccc3)no2)cc1 (stereo not given)	-9	0	14%	-9	2.5%	-4.2	-3
CC1=C(C(=O)c2ccccc2)C(c2ccc(N3CCOCC3)cc2)NC(=O)N1 (stereo not given)	0	16	-17%	-8	1.8%	0.0	-14
CCOc1ccccc1CN1C(=O)NC2(CCCCCC2)C1=O	-2	-7	7%	3	-0.4%	-3.6	-9
CC(C)(C)C(=O)O/N=C(\N)c1ccc([N+](=O)[O-])s1	0	-6	7%	-8	7.2%	0.5	.
Nc1ncnc(Sc2ncccn2)c1[N+](=O)[O-]	8	-9	35µM*	-30	3.6%	-5.0	5
CC(C)OC(=O)c1ccc(COC(=O)c2cnccn2)cc1	5	-2	15%	-2	1.5%	-8.8	12
O=C(Nc1nnc(COc2ccc(Cl)cc2)s1)c1cccs1	6	0	14µM*	-4	4.5%	-3.3	2
COc1ccc(-c2ccc(N3C(c4ccsc4)=Cc4ccc(F)cc4C3c3c[nH]c4ccccc34)cc2)cc1 (stereo not given)	-8	.	.	.	1.3%	.	-6
COc1ccccc1CN(C)C[C@H]1OCc2cnnn2CCCC(=O)N([C@H](C)CO)C[C@@H]1C	7	.	.	-2	0.2%	-12	-1
O=C(c1ccccc1F)N1CCN(S(=O)(=O)c2ccc3c(c2)OCCO3)CC1	2	.	0%	0	1.2%	0.1	-2
Cc1cc(C)cc(NS(=O)(=O)c2cc(C(=O)NCc3ccccn3)ccc2Cl)c1	-12	0	4%	9	-0.6%	-1.1	12
CCOC(=O)N1CCN(C(=O)CSc2nnc3[nH]c(=O)c(C)c(C)n23)CC1	0	9	.	-3	2.3%	3.0	4
COc1ccc(N(CC(=O)Nc2ccccc2OC)S(=O)(=O)c2ccc(OC)c(OC)c2)cc1	-5	-5	11%	-1	8.8%	-1.7	-12
Cc1nnc(NC(=O)c2ccc3c(c2)NC(=O)CS3)s1	3	15	.	-5	1.3%	0.4	.
NS(=O)(=O)c1cc(C(=O)OCC(=O)Nc2ccc(Cl)cc2[N+](=O)[O-])ccc1Cl	-16	-1	-14%	10	0.8%	5.9	-9
CCN(CC)CCOC(=O)c1ccc(NC(=O)CCCN2C(=O)/C(=C\c3cccs3)SC2=S)cc1	?	-2	50µM*	-56	-1.6%	-3.8	?
NC(Cc1ccc(F)cc1)c1csc(Nc2nccc(C(F)(F)F)n2)n1 (stereo not given)	-20	.	.	0	-1.2%	3.6	-12
C=CC[C@@]12C=C(OC)C(=O)C(OC)=C1O[C@H](c1ccc3c(c1)OCO3)[C@H]2C	1	.	.	-5	0.0%	8.1	3
COc1cccc(NC(=O)CCc2nnc3ccc(NCc4ccco4)nn23)c1	-16	1	-2%	6	-0.6%	?	-10
O=S(=O)(NC1CC1)c1ccc(S(=O)(=O)N2CCCC(c3nc(-c4cccnc4)no3)C2)cc1 (stereo not given)	2	2	-8%	11	6.1%	5.1	-20
CSc1cccc(NC(=O)Nc2ccc(Cl)cc2)c1	3	-22	21%	-16	2.9%	-1.6	0
O=C(c1ccc2nc(Cc3cccc(Cl)c3)oc2c1)N1CCC(O)CC1	0	-24	4%	-5	0.3%	-0.9	-5
Fc1ccc(NC(=S)NCc2ccccc2)cc1	7	2	16%	0	0.8%	-1.3	-10

# Record cards, from the list above. Order of values: Six1-Eya2 blk	TRPV1 potentiator	Sfp inh	D2 potentiator	PINK1 expr mod	D2 agonist	CtBP-E1A blk
# Record of `O=S(=O)(NC1CC1)c1ccc(S(=O)(=O)N2CCCC(c3nc(-c4cccnc4)no3)C2)cc1` (stereo not given) = 2	2	-8%	11	6.1%	5.1	-20
# Record of `COc1cccc(NC(=O)CCc2nnc3ccc(NCc4ccco4)nn23)c1` = -16	1	-2%	6	-0.6%	?	-10

# (list continues)
canonical_smiles	Six1-Eya2 blk	TRPV1 potentiator	Sfp inh	D2 potentiator	PINK1 expr mod	D2 agonist	CtBP-E1A blk
N#CC(c1ccc(O)cc1)c1ncc(C(F)(F)F)cc1Cl (stereo not given)	-3	-3	10%	0	4.1%	1.8	5
O=C(O)c1cc(Cl)c2ccccc2c1O	1	25	-2%	-22	.	-2.8	-2
CC(=O)N1CCc2c(sc(NC(=O)CCS(=O)(=O)c3ccccc3)c2C(N)=O)C1	-2	6	4%	-4	2.1%	-2.9	-13
Cc1nnc2sc(SCc3ccc(Cl)cc3)nn2c1=O	7	-4	3%	-23	8.0%	1.0	-4
CC1C(=O)Nc2ccccc2N1C(=O)c1ccc(Cl)c(Cl)c1 (stereo not given)	-1	6	4%	-2	2.8%	-2.3	1
O=C(OCc1nc2ccccc2s1)C1CCN(C2=NS(=O)(=O)c3ccccc32)CC1	-14	-1	3%	10	1.9%	-2.0	-13
CCCN(CCC)CCCNC(=O)C1CCC(CNS(=O)(=O)c2cccc3nsnc23)CC1 (stereo not given)	-15	-3	5%	-32	-1.4%&5.1%	-2.9	-16
COC(=O)C1CC23C=CCN4CCC5(c6ccccc6NC15C2C)C43 (stereo not given)	-5	-5	4%	-1	13%	0.5	1
COc1ccc(CCNC(=O)COc2ncnc3ccccc23)cc1	2	-4	9%	-1	0.3%	1.1	-2
COc1ccc(C)cc1Nc1n[n+](-c2ccccc2)c(-c2ccc(N(C)C)cc2)s1	-12	2	20µM*	-99	?	-0.4	3
COc1ccc(-c2nn(-c3ccccc3)cc2/C=C\C(=O)N2CCOCC2)cc1[N+](=O)[O-]	8	8	11%	-9	0.2%	-1.2	6
CN1CCN(C(=O)c2ccc(N(Cc3ccc(Cl)cc3)S(C)(=O)=O)cc2)CC1	-2	-6	14%	-19	2.8%[38.3 µM]	-1.3	8
COc1ccccc1CN(C(=O)CNC(=O)c1ccco1)C(C(=O)NCC1CCCO1)c1ccccc1 (stereo not given)	0	1	-7%	17	0.1%	?	5
COc1ccc(CNc2ccc(S(N)(=O)=O)cc2)c(OC)c1OC	18	30	-10%	-6	?	-2.1	0
CC(C)NS(=O)(=O)c1ccc(CCC(=O)O)cc1	-1	12	29%	-4	-0.7%	-3.3	4
Cc1ccccc1C(=O)N/N=C/c1ccccn1	-13	-6	71µM*	-10	0.6%	4.1	-21
CCCn1c(N)c(C(=O)CSc2nc3ccccc3n2CCC#N)c(=O)n(C)c1=O	1	-15	-15%	4	?	-0.2	2
O=C(CN1CCOCC1)NNc1nc(-c2ccccc2)c2cc(Br)ccc2n1	-9	-24	5%	-10	-0.2%	-4.6	-17
O=C(N/N=C/c1ccco1)c1ccccc1OCc1ccc(Br)cc1	-12	20	0%	-1	4.4%	-1.5	-12
COc1ccc2[nH]c3c(c2c1)CCN1C(=O)C(CC(=O)NCc2cccc(C(F)(F)F)c2)C[C@H](C(=O)N2CCCCC2)[C@@]31CCc1ccccc1 (stereo not given in full)	5	.	.	.	-0.1%	-3.2	-14
COc1ccccc1N1CCN(C(=O)c2ccc3c(Cl)c4c(nc3c2)CCCC4)CC1	-7	1	-17%	-1	5.1%	1.2	15

# A different layout for part of the listing above.
# Sequence of screens – Six1-Eya2 blk, TRPV1 potentiator, Sfp inh, D2 potentiator, PINK1 expr mod, D2 agonist, CtBP-E1A blk
Cc1nnc2sc(SCc3ccc(Cl)cc3)nn2c1=O
→ 7, -4, 3%, -23, 8.0%, 1.0, -4
CC1C(=O)Nc2ccccc2N1C(=O)c1ccc(Cl)c(Cl)c1 (stereo not given)
→ -1, 6, 4%, -2, 2.8%, -2.3, 1
O=C(OCc1nc2ccccc2s1)C1CCN(C2=NS(=O)(=O)c3ccccc32)CC1
→ -14, -1, 3%, 10, 1.9%, -2.0, -13
CCCN(CCC)CCCNC(=O)C1CCC(CNS(=O)(=O)c2cccc3nsnc23)CC1 (stereo not given)
→ -15, -3, 5%, -32, -1.4%&5.1%, -2.9, -16
COC(=O)C1CC23C=CCN4CCC5(c6ccccc6NC15C2C)C43 (stereo not given)
→ -5, -5, 4%, -1, 13%, 0.5, 1
COc1ccc(CCNC(=O)COc2ncnc3ccccc23)cc1
→ 2, -4, 9%, -1, 0.3%, 1.1, -2
COc1ccc(C)cc1Nc1n[n+](-c2ccccc2)c(-c2ccc(N(C)C)cc2)s1
→ -12, 2, 20µM*, -99, ?, -0.4, 3
COc1ccc(-c2nn(-c3ccccc3)cc2/C=C\C(=O)N2CCOCC2)cc1[N+](=O)[O-]
→ 8, 8, 11%, -9, 0.2%, -1.2, 6
CN1CCN(C(=O)c2ccc(N(Cc3ccc(Cl)cc3)S(C)(=O)=O)cc2)CC1
→ -2, -6, 14%, -19, 2.8%[38.3 µM], -1.3, 8
COc1ccccc1CN(C(=O)CNC(=O)c1ccco1)C(C(=O)NCC1CCCO1)c1ccccc1 (stereo not given)
→ 0, 1, -7%, 17, 0.1%, ?, 5
COc1ccc(CNc2ccc(S(N)(=O)=O)cc2)c(OC)c1OC
→ 18, 30, -10%, -6, ?, -2.1, 0
CC(C)NS(=O)(=O)c1ccc(CCC(=O)O)cc1
→ -1, 12, 29%, -4, -0.7%, -3.3, 4
Cc1ccccc1C(=O)N/N=C/c1ccccn1
→ -13, -6, 71µM*, -10, 0.6%, 4.1, -21
CCCn1c(N)c(C(=O)CSc2nc3ccccc3n2CCC#N)c(=O)n(C)c1=O
→ 1, -15, -15%, 4, ?, -0.2, 2
O=C(CN1CCOCC1)NNc1nc(-c2ccccc2)c2cc(Br)ccc2n1
→ -9, -24, 5%, -10, -0.2%, -4.6, -17

# High-throughput results from PubChem BioAssay.
